GLA inh pH 4.5: qHTS Assay for Inhibitors of Human alpha-Galactosidase at pH 4.5; purified enzyme, 4-MU-alpha-Gal fluorescence, pH 4.5; activity change, negative = inhibition, % at 105 µM; Alpha-galactosidase A (Homo sapiens), P06280; 230,000 tested, under 10 active; AID 1467, 2008; inconclusive = small, poorly fitted or top-dose-only inhibition, or a rising curve; inactive = flat fitted curve, though single readings scatter; no compound was filed as active;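 also: 0% = full activity with enzyme and -100% = basal without enzyme; dose as in the result columns while the protocol names 77 µM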
Target sequence (P06280 whole entry, looked up): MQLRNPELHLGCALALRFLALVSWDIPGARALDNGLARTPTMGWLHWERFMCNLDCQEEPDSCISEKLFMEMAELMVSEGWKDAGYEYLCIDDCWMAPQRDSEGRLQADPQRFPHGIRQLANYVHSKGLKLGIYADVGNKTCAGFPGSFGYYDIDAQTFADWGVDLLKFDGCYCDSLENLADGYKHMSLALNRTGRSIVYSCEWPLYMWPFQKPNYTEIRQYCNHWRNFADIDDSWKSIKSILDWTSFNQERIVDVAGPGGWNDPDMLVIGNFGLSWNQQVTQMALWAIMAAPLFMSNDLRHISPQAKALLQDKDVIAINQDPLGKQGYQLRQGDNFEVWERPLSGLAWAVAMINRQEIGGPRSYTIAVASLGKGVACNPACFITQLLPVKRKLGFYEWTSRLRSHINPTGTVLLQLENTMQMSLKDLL
Rango release inh: qHTS Assay for Inhibitors of RanGTP induced Rango (Ran-regulated importin-beta cargo) - Importin beta complex dissociation | 340,000 tested, 0.071% active | Snurportin-1 (Homo sapiens) + GTP-binding nuclear protein Ran (Homo sapiens) + Importin … | Biochemical FRET Rango-importin beta, RanGTP-induced dissociation | Potency, µM (series often up to 46.1 µM), inactives show top-dose activity change, negative = inhibition; active means falling FRET ratio curve, often poorly fitted, with flat reads before Ran was added; inconclusive means other falling curves, or compound fluorescence or quenching; inactive means flat or rising ratio curve;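 also: potency is read from the fitted curve at half-maximal effect; % of control where 0% means no effect; nearly all actives have a fitted effect of over 45% in size; -100% = wells without RanGTP and RCC1; the record marks most hits as doubtful in a second field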
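Compounds preincubate 5 min with complex of recombinant Rango and importin beta in PBS with 1 mM DTT. Ran (0.6 uM) loaded with 2 mM GTP plus 0.2 uM RCC1 starts dissociation; FRET is recorded 45 min later.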
miR-21 reporter: qHTS Assay for Modulators of miRNAs and/orActivators of miR-21. HeLa miR-21 FLuc reporter, luciferase, 48 h. Potency, µM (titrated, usually from 38.3 µM), for inactives: at the top dose reporter change, positive = more light. 340,000 tested, under 10 active. AID 2288, 2010; active = well fitted rising curve with a large enough effect; inconclusive = small, poorly fitted or top-dose-only effect; inactive = no such curve, though single readings can be large or run the other way;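 also: % of control where 0% means no effect; miR-21 action dims this reporter so a rising signal means less miR-21 action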
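Luminescence from a firefly luciferase reporter carrying a miR-21 binding site downstream, stably expressed under a CMV promoter in HeLa cells that make miR-21 endogenously, reports miRNA modulation after 48 h compound exposure up to approximately 40uM final.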
Rango-impB inh: qHTS Assay for Inhibitors of Rango (Ran-regulated importin-beta cargo) - Importin beta complex formation | Rango CFP/YFP FRET sensor + importin beta, 45 min | Potency, µM (series often up to 92.2 µM), without a hit: at the highest dose inhibition of complex formation | Importin subunit beta-1 (Homo sapiens), Q14974 | 340,000 tested, 0.031% active; active = rising FRET ratio curve, often small or poorly fitted; inconclusive = mostly compound fluorescence or quenching in the first reads; inactive = flat curves in all reads;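 also: potency is read from the fitted curve at half-maximal effect; 0% = DMSO wells and 100% = buffer wells lacking importin beta; nearly all actives have a fitted effect of over 15% in size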
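Inhibition scored from the CFP 486 nm/YFP 530 nm FRET ratio 45 min after adding 0.125 microM importin beta to 50 nM Rango biosensor preincubated 5 min with compound (room temperature, PBS with DTT, Tween-20, BSA). No-importin wells as positive control.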
Active calls of the source: *; ? = inconclusive; . = no result given. Not all compounds are listed. The share of hits here may be higher or lower than overall.

SMILES | GLA inh pH 4.5 | Rango release inh | miR-21 reporter | Rango-impB inh
C[C@H](NC(=O)c1cc2cc(Cl)ccc2n1C)C(=O)N[C@@H](C(=O)O)c1ccccc1 | . | 21% | 0% | 9.6%
O=C(NNc1ccccn1)C(=O)NNS(=O)(=O)c1ccc(F)cc1 | 8 | 7% | -1% | 0.9%
Cc1noc(C)c1S(=O)(=O)NCCCN1CCN(Cc2ccccc2)CC1 | -9 | . | -6% | .
COc1ccc(OC)c(CN2CCN(C(=O)c3ccc(S(=O)(=O)Nc4ccccc4F)cc3)CC2)c1 | . | -1% | . | 4.9%
O=C1NCCCCC1NS(=O)(=O)c1ccc(Cl)cc1 (stereo not given) | . | 0% | -1% | -0.8%
Cc1oc(/N=C/c2ccccc2)c(C#N)c1C | . | -6% | 3% | ?
CCOC(=O)c1ccc(N2C(=O)CC(Sc3nc(C)cc(C)n3)C2=O)cc1 (stereo not given) | . | 0% | -1% | -0.9%
COc1ccc(Nc2nnc(Cc3ccncc3)c3ccccc23)c(OC)c1 | . | -9% | -15% | -3.2%
COc1cc(Cl)c(C)cc1NC(=O)c1ccccc1-n1cnnn1 | . | -1% | . | 3.2%
CCOc1ccc(Cc2nnc(SCC(=O)Nc3ccccc3)n(N)c2=O)cc1 | . | -3% | . | -1.4%
O=C(Nc1ccc(Br)cc1F)c1ccc2nsnc2c1 | . | -8% | -54% | -7.0%
COC(c1ccccc1)c1nnc(CCC(=O)N2CCN(CCOc3ccccc3)CC2)o1 (stereo not given) | 10 | 5% | 0% | 0.8%
COCCn1c(C23CC4CC(CC(C4)C2)C3)n[nH]c1=S | -2 | 8% | 0% | 7.5%
COc1ccc(CNC(=O)CCN2C(=O)[C@@H]3Cc4ccccc4CN3C2=O)cc1 | . | 34% | -2% | 4.5%
Cc1sc(NC(=O)C2CC(Cl)=CCC2C(=O)O)c(C#N)c1C (stereo not given) | 6 | 0% | -3% | 1.2%
Cc1ccc(S(=O)(=O)N2CCN(C(=O)COC(=O)CCOc3ccc(C(C)(C)C)cc3)CC2)cc1 | . | 14% | . | -1.7%
CC1CN(c2ccc([N+](=O)[O-])cc2C#N)CC(C)O1 (stereo not given) | -5 | 0% | -7% | 3.7%
Cc1ccc(S(=O)(=O)N2CCOCC2)cc1C(=O)OC1CCOC1=O (stereo not given) | . | 6% | . | -0.1%
Oc1ccccc1Oc1ncc(Br)c(Cl)n1 | . | 3% | 13% | 1.6%
CN(C)/N=C1\CCS(=O)(=O)c2sccc21 | -5 | 14% | -3% | 2.1%

An excerpt from above in order of their number in GLA inh pH 4.5, smallest number first.
SMILES | GLA inh pH 4.5 | Rango release inh | miR-21 reporter | Rango-impB inh
Cc1noc(C)c1S(=O)(=O)NCCCN1CCN(Cc2ccccc2)CC1 | -9 | . | -6% | .
CN(C)/N=C1\CCS(=O)(=O)c2sccc21 | -5 | 14% | -3% | 2.1%
COCCn1c(C23CC4CC(CC(C4)C2)C3)n[nH]c1=S | -2 | 8% | 0% | 7.5%
Cc1sc(NC(=O)C2CC(Cl)=CCC2C(=O)O)c(C#N)c1C (stereo not given) | 6 | 0% | -3% | 1.2%
O=C(NNc1ccccn1)C(=O)NNS(=O)(=O)c1ccc(F)cc1 | 8 | 7% | -1% | 0.9%
COC(c1ccccc1)c1nnc(CCC(=O)N2CCN(CCOc3ccccc3)CC2)o1 (stereo not given) | 10 | 5% | 0% | 0.8%

Profiles, looked up by structure. Order of values: GLA inh pH 4.5, Rango release inh, miR-21 reporter, Rango-impB inh
`Cc1ccc(S(=O)(=O)N2CCOCC2)cc1C(=O)OC1CCOC1=O` (stereo not given) is entered as ., 6%, ., -0.1%
`O=C(Nc1ccc(Br)cc1F)c1ccc2nsnc2c1` is entered as ., -8%, -54%, -7.0%
`CN(C)/N=C1\CCS(=O)(=O)c2sccc21` is entered as -5, 14%, -3%, 2.1%

Other structures follow.
SMILES | GLA inh pH 4.5 | Rango release inh | miR-21 reporter | Rango-impB inh
N#CCC(=O)N/N=C/c1cc([N+](=O)[O-])ccc1N1CCOCC1 | 11 | 19% | 1% | 1.9%
C/C=C/c1ccc(OCCCCN2CC(C)CC(C)C2)c(OC)c1 (stereo not given) | -16 | 34% | 0% | -0.4%
CCOc1ccc(-c2nc(N)ncc2Oc2ccccc2Br)c(O)c1 | -2 | 4% | -3% | -0.9%
Cc1ccc(Cl)c(OCC(=O)OCC(=O)NC2CCCc3ccccc32)c1 (stereo not given) | 3 | 28% | -5% | -1.6%
COc1cc(CNCCc2c[nH]c3ccccc23)ccc1OCc1ccc(F)cc1 | -11 | -10% | 16% | 3.2%
CCOc1ccc(N2C(=O)c3cccnc3C2Nc2ccc(C)c(C)c2)cc1 (stereo not given) | 2 | -5% | -4% | -1.2%
Cc1cccc(-n2c(C)cc(C(=S)N3CCOCC3)c2C)c1C | -9 | -12% | -4% | 0.1%
CC1CCN(C(=O)/C(=C\c2ccccc2F)NC(=O)c2ccccc2)CC1 | . | 2% | -4% | 0.7%
CC(OC(=O)Cc1c(F)cccc1Cl)C(=O)NCCC1=CCCCC1 (stereo not given) | -6 | 23% | -6% | 4.2%
COC(=O)c1ccc(S(=O)(=O)N2Cc3ccccc3C2)cc1 | 6 | -4% | 0% | 1.4%
O=C(NCCc1cccc(F)c1)/C(=C/c1cccnc1)NC(=O)c1ccccc1 | 4 | 3% | -11% | 0.7%
O=C(COC(=O)CSc1nnc(-c2ccc(Cl)cc2)o1)Nc1cc(Cl)ccc1Cl | 6 | -2% | -10% | 5.1%
COc1cc(/C=N/Nc2ncc(C(F)(F)F)cc2Cl)cc(OC)c1O | -10 | 6% | -1% | -3.6%
Cc1c(NCc2nc3ccccc3[nH]2)c(=O)n(-c2ccccc2)n1C | -10 | 15% | -4% | -4.2%
CN1C(=O)CC(N2CCN(CC(N)=O)CC2)C1=O (stereo not given) | 5 | 10% | -3% | -0.2%
COc1ccc(-c2cnn3cc(-c4cccc(Cl)c4)cnc23)cc1 | . | -11% | 3% | 0.0%
O=C(/C=C/c1c(F)cccc1Cl)c1ccc(F)cc1 | -22 | -11% | -15% | 0.3%
O=C(Nc1ccon1)Nc1cccc(Cl)c1Cl | . | 4% | -14% | 0.8%
S=C(NCc1ccco1)Nc1ccc(Br)cc1Cl | 1 | 0% | -22% | -3.6%
O=C(COC(=O)c1ccc([N+](=O)[O-])o1)NCc1ccccc1 | . | -23% | . | ?
CCOc1cc(/C=N/NC(=O)Cn2nc([N+](=O)[O-])cc2C)cc(Br)c1OCc1ccccc1C | 8 | 2% | -4% | 1.5%
CCOC(=O)c1sc(NC(C)=O)nc1C | -14 | ? | -4% | -0.1%
CCOC(=O)Cc1csc(NC(=S)NC(=O)c2cccc([N+](=O)[O-])c2)n1 | -3 | 4% | -6% | -0.5%
N#Cc1c2n(c(=S)n(-c3ccccc3[N+](=O)[O-])c1=O)CCCCC2 | 2 | 0% | 2% | -1.7%
COc1ccc(CNC(=O)Cn2nnc(-c3ccc(NC(=O)C4CCCCC4)cc3)n2)cc1 | 6 | -3% | -48% | 0.4%
CCOc1ccc(N2C(=O)Nc3ccccc3C2(O)C(=O)NCc2ccc(C)cc2)cc1 (stereo not given) | -2 | 1% | -1% | -0.1%
Cc1ccsc1C(=O)NCC(=O)OCc1ccccc1 | . | 8% | -3% | 0.7%
Cc1ccc(NC(=O)c2c([N+](=O)[O-])cnn2C)cc1C | . | 0% | -7% | -1.9%
COC(=O)c1ccc(CNCC(O)COc2ccc(-c3ccccc3)cc2)cc1 (stereo not given) | . | -22% | -3% | -1.2%
NC(=O)c1ccc(NC(=O)Nc2ccc3c(c2)OCO3)cc1 | . | 24% | -33% | 0.3%
Cn1c(CNC(=O)c2ccc(F)cc2)nc2ccccc21 | 2 | 33% | -5% | 3.4%
COCc1nnc(NC(=O)CSc2ccc(C)cc2)s1 | -1 | 9% | -16% | 0.4%
COc1ccc(OC)c(CN2CCN(C(=O)c3ccco3)CC2)c1 | . | 14% | -4% | 0.8%
O=S(=O)(Nc1c(S(=O)(=O)c2ccccc2)c2nc3ccccc3nc2n1C1CCCCC1)c1ccccc1 | 13 | ? | 7% | ?
O=C(NC1CCCCNC1=O)c1ccco1 (stereo not given) | . | ? | -6% | -0.5%
CCCCN(C(=O)C1CC(=O)N(c2ccc(OC)cc2OC)C1)c1c(N)n(CC(C)C)c(=O)[nH]c1=O (stereo not given) | . | 13% | 2% | -5.3%
CCOC(=O)c1oc2ccc(CNC(C)(C)C)c(Cl)c2c1C | -3 | -16% | -21% | -7.7%
Cc1nn(Cc2ccc(Cl)cc2)c(C)c1NC(=O)CSc1nc2c(c(C(F)(F)F)n1)CCc1ccccc1-2 | 4 | 1% | 1% | 3.0%
CCOC(=O)c1oc2ccc(/C=N/O)c(Cl)c2c1C | 9 | 5% | -83% | 1.5%
N/C(Cc1cccc2ccccc12)=N\O | -13 | -9% | 6% | -1.6%
CCOC(=O)c1sc(C)c2c(=O)n(CC)nnc12 | 0 | -1% | -10% | 0.0%
CC(C)Cc1nnc(NC(=O)c2cc3c(s2)CCC3)s1 | 4 | ? | -47% | ?
CCn1c(SCC(=O)Nc2ccc3c(c2)OCCO3)nnc1C(C)C | . | 3% | 5% | -3.4%
CC(=C\C(=O)O)/C(=C/c1ccco1)C(=O)O | 0 | 3% | 0% | 0.4%
Cc1ccc(S(=O)(=O)Nc2cc(-c3nn(C)c(=O)c4ccccc34)ccc2N2CCOCC2)cc1 | 4 | 19% | 15% | 0.1%
Cc1ccnc(Nc2nc(-c3sc(C)nc3C)cs2)c1 | . | ? | . | -0.9%
N#CC(C#N)=C1c2cc(S(N)(=O)=O)ccc2-c2ccc(S(N)(=O)=O)cc21 | 10 | -9% | 5% | 2.6%
CN(Cc1cccs1)C(=O)c1ccc(S(=O)(=O)NCc2ccco2)cc1 | 14 | 22% | 2% | 3.4%
CS(=O)(=O)Nc1ccc(S(=O)(=O)N2CCCCCC2)cc1 | . | 1% | -1% | -0.2%

Three entries drawn at random from those above:
SMILES | GLA inh pH 4.5 | Rango release inh | miR-21 reporter | Rango-impB inh
CN(Cc1cccs1)C(=O)c1ccc(S(=O)(=O)NCc2ccco2)cc1 | 14 | 22% | 2% | 3.4%
CC(=C\C(=O)O)/C(=C/c1ccco1)C(=O)O | 0 | 3% | 0% | 0.4%
Cc1ccc(S(=O)(=O)Nc2cc(-c3nn(C)c(=O)c4ccccc34)ccc2N2CCOCC2)cc1 | 4 | 19% | 15% | 0.1%
